PrP UTR inh: suppresses PrP 5' UTR mRNA reporter expression | 340,000 compounds, 0.35% hits | inhibition, % (test concentration not listed) | AID 488862 | cell-based PrP 5' UTR mRNA reporter, plate reader;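 active means every replicate at 50% or more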;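 further: 0 = median of the neutral control wells; tested in H4 reporter cells; numbers are from one replicate; inactives centre near -14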
Autofluor counter: flagged as autofluorescent in microsphere protease counterscreen | compound autofluorescence counterscreen, microsphere flow cytometry; hits give high values | 360,000 compounds, 3.1% hits | fluorescence intensity (no concentration beside the values) | AID 624483;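 active means at least 3 SD above the mean of all compounds, about 16000 in these data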;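 further: 100 nL of 1 mM stock went into each well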
Active calls of the source: *; & = joins results of further samples. Some of the compounds tested; the hit share may differ from the screen's.

SMILES | PrP UTR inh | Autofluor counter
O=C(O)C(=Cc1cc2c(cc1[N+](=O)[O-])OCO2)c1cc2c(cc1Br)OCO2 | -22.7 | 3227
CC1(C)C[C@@H]1C(=O)N/C(=C\CCCCSC[C@H](N)C(=O)O)C(=O)O | -25.5 | 6125
NC(=O)[C@@H]1CCCNc2c(I)cc([N+](=O)[O-])cc2C(=O)N[C@@H](CCC(=O)O)C(=O)N[C@@H](CO)C(=O)N1 | -18.8 | 3915
CN(C)S(=O)(=O)n1cnc([C@H]2c3c(ncn3Cc3ccccc3)C[C@H]3COC(=O)[C@@H]32)c1 | -31.2 | 2837
OCC[C@H]1C[C@H](O)[C@@H](O)[C@@]2(Cc3ccccc3O2)O1 | -22.8 | 3464
c1ccc(CNc2c(-c3cccc(SC4CCCCC4)c3)nc3ccccn23)cc1 | -19.2 | 2821&6571
COC(=O)C1=C(c2ccccc2OCc2ccccc2)C[C@@H]2CC[C@H]1N2C(=O)NCc1ccccc1 | -17.4 | 2960
CC(=O)O[C@H]1C[C@@H]2CC[C@@H]3[C@H](CC[C@@]4(C)[C@H]3C[C@H]([N+]3(C)CCCCC3)[C@@H]4OC(C)=O)[C@@]2(C)C[C@@H]1[N+]1(C)CCCCC1 | -2.2 | 4445
CC(C)(C)OC(=O)C[C@@H]1C/C=C\C[C@@H](CC(=O)N(CCO)Cc2ccccc2)C(=O)N[C@H](C(C)(C)C)COC1=O | -28.8 | 3594
COc1ccc(S(=O)(=O)N2CCCCC2)cc1NC(=O)C1CCCC1 | -14.3 | 4089
CC(=NNC(=S)N1CCCCCC1)c1cccc2cccnc12 | 9.3 | 3474
CNC(=O)c1cc(NC(=O)N(CCC#N)CCN(C(=O)NC(Cc2ccccc2)C(=O)NC(CC(C)C)C(=O)NC)c2ccccc2)ccc1OC (stereo unspecified) | -15.6 | 3953
Cc1ccccc1C(=O)OCC(=O)NCC1COc2ccccc2O1 (stereo unspecified) | -5.2 | 6215
CCOC(=O)[C@H]1[C@H]2COc3ccc(Br)cc3[C@@H]2N2C(=O)c3ccc(F)cc3NC(=O)[C@@]12C | -3.5 | 3817
O=C(CCN1C(=O)C2CC=CCC2C1=O)OCC(=O)c1ccc(F)cc1 (stereo unspecified) | -40.8 | 2963
C[C@H](O)[C@@H]1C(=O)N2CCc3ccc(N4CCN(C)CC4)cc3[C@@H]2C[C@@H]1N(C)C(=O)Nc1cc(Cl)cc(Cl)c1 | -9.6 | 3987
CC(C)(C)OC(=O)C[C@H]1C/C=C\C[C@@H](CC(=O)N(CCO)Cc2ccccc2)C(=O)NC[C@H](c2ccccc2)OC1=O | -11.5 | 3381
COc1cc(C(=O)c2ccccc2C(=O)O)c(OC)c2c1CCCC2 | -19.5 | 3189
Cn1nc(C(=O)NNC(=O)Cc2ccc(S(=O)(=O)N3CCOCC3)s2)c2ccccc2c1=O | -17.7 | 3797
CCOC(=O)[C@H]1[C@H]2COc3ccc(C)cc3[C@@H]2N2C(=O)c3ccc(Cl)cc3NC(=O)[C@@]12C | -5.7 | 4138
CC(C)(C)OC(=O)C[C@@H]1C/C=C\C[C@@H](CC(=O)N(CCO)Cc2ccccc2)C(=O)N[C@@H](c2ccccc2)COC1=O | -20.7 | 2902
O=C(C[C@@H]1C/C=C\C[C@@H](Cc2ccc(F)cc2)C(=O)OC[C@@H](Cc2c[nH]c3ccccc23)NC1=O)NCCO | -27.8 | 2809
COC(=O)[C@H]1[C@H]2C[C@@H]3c4[nH]c5cc(OC)ccc5c4CCN3C[C@H]2C[C@@H](OC(=O)/C=C/c2cc(OC)c(OC)c(OC)c2)[C@@H]1OC | -16.8 | 4969
O=C(Nc1ccn(CCCN(CCCn2ccc(NC(=O)OCc3ccccc3)nc2=O)CCc2cc3ccccc3[nH]2)c(=O)n1)OCc1ccccc1 | -19.8 | 3489
O=C1[C@H]2[C@@H](C3CC3)N3C(=O)CN(CC4CC4)C(=O)[C@@]3(Cc3ccccc3)[C@H]2C(=O)N1c1ccccc1 | 0.5 | 3831

Going on with the list:
SMILES | PrP UTR inh | Autofluor counter
O=C1N/C(=N\N=C\c2ccc3ncccc3c2)SC1Cc1ccc(SC(F)F)cc1 (stereo unspecified) | -18.4 | 20635*
CCOC(=O)[C@H]1[C@H]2COc3ccc(Br)cc3[C@@H]2N2C(=O)CN(CC3CCCO3)C(=O)[C@@]12C (stereo partly specified) | -39.5 | 3492
COc1ccc(NP2(=O)OCC(C)(N)CO2)cc1 (stereo unspecified) | -28.9 | 4386
C/C=C/C1=CC(=O)C[C@H](c2ccc(F)cc2)C1 | -7.5 | 4203
O=C1NCC(c2ccccc2)(c2ccccc2)C(=O)N1 | -17.6 | 3766
Cc1c(Cl)c([N+](=O)[O-])nn1Cc1ccc(C(=O)N/N=C\c2ccccn2)o1 | -11.3 | 7521
O=S(=O)(Cc1ccccc1)C(CCCc1ccccc1)S(=O)(=O)Cc1ccccc1 | -4.4 | 8822
N/C(=N/OCc1cccc([N+](=O)[O-])c1)c1nonc1N | -17.1 | 2723
C[C@H](NC(=O)c1ncn(C)c1C(=O)N[C@@H](C)c1ccccc1)c1ccccc1 | -8.2 | 3488
C[n+]1c(-c2ccccc2)cc2c(=Cc3ccc([N+](=O)[O-])cc3)c3ccccc3n21 | -17.9 | 2712
O=C(Nc1ccccc1OC(=O)c1ccccc1)c1ccccc1 | 0.1 | 5331
CCOC(=O)C1=CC[C@@H](c2ccccc2Cl)N(S(=O)(=O)c2ccc(C)cc2)[C@H]1C(=O)OCC | -6.6 | 3730
CCCCCCCCCCCCCCCC[N+](C)(C)CCl | 15.0 | 3525
Cn1c(=O)[nH]c2c(c1=O)CCO2 | -14.2 | 4300
COc1ccc(C=NN=C2c3ccccc3-c3ccccc32)cc1OC | -8.6 | 3690
S=c1c2[nH]cnc2ncn1CCSc1ncnc2nc[nH]c12 | -17.1 | 3618
CC(C)C[C@@H](CNCC(=O)[C@H](C)NC(=O)c1[nH]cnc1C(=O)N[C@@H](C)CN)NC(=O)c1nc[nH]c1C(=O)N[C@@H](CO)C(=O)O | -12.1 | 3982
S=C(c1ccco1)N1CCOCC1 | -9.6 | 3643
COC(=O)C1=C(c2ccccc2OCc2ccccc2)C[C@@H]2CC[C@H]1N2C(=O)NC1CCN(Cc2ccccc2)CC1 | 4.7 | 3046
CC(=NNC(=S)N(Cc1ccccn1)Cc1ccccn1)c1cnccn1 | 79.9* | 4053
[O-]/[N+](=C\c1ccccc1)c1ccccc1 | -25.3 | 4044
COc1ccc([C@H]2CC(=O)C=C(c3ccc(-c4ccccc4)cc3)C2)cc1OC | 2.6 | 3438
C[C@H](NC(=O)c1nc[nH]c1C(=O)NCCCCCNC(=O)OC(C)(C)C)c1ccccc1 | -3.7 | 3641
S=C=Nc1cccc(C2(N3CCCCC3)CCCCC2)c1 | -12.6 | 6204
CCOC(=O)[C@@H]1[C@H]2COc3cc(OC)ccc3[C@H]2N2C(=O)N(c3cccc(F)c3)C(=O)[C@]12C | -15.1 | 3093

The listing continues:
SMILES | PrP UTR inh | Autofluor counter
C=CCC[C@H](Cc1ccc(F)cc1)C(=O)OC[C@@H](Cc1c[nH]c2ccccc12)NC(=O)[C@H](CC=C)CC(=O)NCCO | -12.7 | 3478
Cc1ccc(N2CC(C(=O)N3CCN(c4ccccn4)CC3)CC2=O)cc1 (stereo unspecified) | 6.1 | 2961
c1ccc(-c2sc3ccccc3c2-c2ccc(OCCN3CCCC3)cc2)cc1 | 0.8 | 3944
O=C1CC/C=C\C[C@@H](CC(=O)N(CCO)Cc2ccccc2)C(=O)N[C@H](Cc2ccccc2)CO1 | -21.7 | 3794
O=C(NCCCCc1ccccc1)c1cccc(NC(=O)c2ccccc2)c1 | -11.9 | 3805
CCC(C)C1/C=C\CC(NC(=O)OCC2c3ccccc3-c3ccccc32)CC(=O)N1Cc1ccccc1 (stereo unspecified) | -3.6 | 3620
CN1OC[C@@H]2CN(C(=O)CCc3ccccc3)[C@H](c3cccc(N4CCOCC4)c3)C[C@@H]21 | -17.0 | 4119
Cn1cccc1C(=O)OCC(=O)NCc1ccc2c(c1)OCO2 | -56.8 | 3621
COC(=O)C1(Cc2ccc3c(c2)CCC3)Cc2ccc3c(c2C1=O)CCC3 (stereo unspecified) | -26.6 | 3677
O=C(O)c1cc2c(o1)CCC/C2=N\O | -14.5 | 9943
O=C(CCC(C(=O)O)N1C(=O)c2ccccc2C1=O)Nc1ccccc1 (stereo unspecified) | -12.0 | 2810
CC1(C)O[C@@H]2[C@H](O1)[C@@H](COS(=O)(=O)O)O[C@H]2n1c(=S)[nH]c2c(=O)[nH]c(N)nc21 | -12.6 | 3875
CO/N=C/c1c(C(=O)OC)nn(-c2ccccc2)c1Cl | -18.6 | 4371
COc1cc(/C=N/Nc2ccc(Cl)c(C(=O)O)c2)ccc1OC(=O)c1cccs1 | -27.1 | 4098
Cc1cccc(OC(C)C(=O)Nc2ccc3c(c2)OCCO3)c1 (stereo unspecified) | -15.6 | 3776
CC1([N+](=O)[O-])COP(=O)(Nc2cccc(Cl)c2)OC1 (stereo unspecified) | -16.6 | 4285
O=C1[C@H](Cc2ccccc2)NCCCC[C@H](c2ccco2)N1Cc1ccccc1 | -16.9 | 3032
CN(C)C1=NC[C@H](Cc2ccccc2)N1CCc1ccc(F)cc1 | -10.6 | 3074
CCOc1ccccc1N/C(=C(/C(Cl)=C(Cl)Cl)[N+](=O)[O-])n1cncn1 | -18.5 | 11243
CC12CCC(=O)N1C(C(=O)NNC(=O)c1ccccc1Cl)CS2 (stereo unspecified) | -5.9 | 2993
c1ccc(N2CC3COc4ccccc4C3=N2)cc1 (stereo unspecified) | -135.6 | 3774
CCC(C)N1CCC2(CC1)N=c1c(c3c4c5c(C)c(O)c3c(O)c1=NC(=O)C(C)=CC=C[C@H](C)[C@H](O)[C@@H](C)[C@@H](O)[C@@H](C)[C@H](OC(C)=O)[C@H](C)[C@@H](OC)C=CO[C@@](C)(O5)C4=O)N2 (stereo partly specified) | -6.8 | 5757
COC(=O)C1=C(c2cccc(OCc3ccccc3)c2)C[C@@H]2CC[C@H]1N2C(=O)NCc1ccc([N+](=O)[O-])cc1 | -20.9 | 4142
CCC(C)NS(=O)(=O)c1ccc(NC(=O)CNCc2cccs2)cc1 (stereo unspecified) | 1.2 | 4181
C#CCOCCOCCOCCNc1nc(N2CCN(C(=O)[C@H]([C@@H](C)CC)n3cc(CCC(=O)O)nn3)CC2)nc(N2CCN(C(=O)[C@H](CCCCN)n3cc(CCC(=O)O)nn3)CC2)n1 | -14.1 | 4810

Next part.
SMILES | PrP UTR inh | Autofluor counter
C=CCc1cc(C=Nc2ccc(N3CCOCC3)cc2)cc(OCC)c1O | -16.0 | 3700
COC(=O)C1=C(c2cccc(OCc3ccccc3)c2)C[C@@H]2CC[C@H]1N2C(=O)NCc1ccccc1OC | -4.7 | 2793
O=C1C2CCCCN2C(=O)N1CCCN1CCN(c2cccc(C(F)(F)F)c2)CC1 (stereo unspecified) | -23.5 | 3722
COc1ccc(CNC(=O)CN2CCC(NC(=O)c3cccc(OC)c3)CC2)cc1 | 2.7 | 3110
O=C(/C=C/c1ccccc1)Nc1cccc(C(=O)N2CCCCC2)c1 | -8.8 | 3518
CSCC[C@@H](C(=O)NCCCCCCCCCCC(=O)N1CCN(C(=O)OC(C)(C)C)CC1)n1cc(CCO)nn1 | 0.2 | 3814
CN1[C@@H]2CCC[C@H]1CC(NC(=O)c1nn(C)c3ccccc13)C2 (stereo partly specified) | -18.9 | 4215
COc1ccc(C(C)(C)C)cc1S(=O)(=O)NCC1CCCO1 (stereo unspecified) | -28.7 | 3794
Cc1noc(C)c1S(=O)(=O)N(C)C[C@H]1Oc2ccc(NC(=O)CCC(F)(F)F)cc2C(=O)N([C@H](C)CO)C[C@@H]1C | 8.1 | 3775
CCN(CC)C(=O)[C@H]1CC(CC(=O)NCC23CC4CC(CC(C4)C2)C3)C(=O)N2CCc3c([nH]c4ccccc34)[C@]12C (stereo partly specified) | -12.1 | 3684
N#CC1C(=O)NC(=O)C(C#N)C12CCCC(C(F)(F)F)C2 (stereo unspecified) | -16.1 | 4203
COc1ccccc1NS(=O)(=O)c1ccc(C)c(C(=O)Nc2ccc(S(=O)(=O)Nc3onc(C)c3C)cc2)c1 | -6.4 | 3513
COC(=O)C1CC2=C(CCC2=O)N(c2ccccc2)C1=O (stereo unspecified) | -1.9 | 4095
COc1ccc(-c2sc3ccccc3c2/C=C/c2ccncc2)cc1 | -4.2 | 4261

Assay outcomes as filed in PubChem.
